YopH PTP inh: YopH tyrosine phosphatase inhibitors, primary screen, biochemical, fluorescence Ex485/Em525 | inhibition, %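 (about 10 µM by stock and volumes)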 | 140,000 compounds, 0.16% hits | AID 898, 2007;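 active means inhibition of 50% or more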;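 further: controls were vehicle for no effect and minimum signal wells for full effect; inactives centre near -20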
Mtb growth: M. tuberculosis H37Rv growth inhibitors, H37Rv strain (AID 1626). M. tuberculosis H37Rv growth inhibition; higher % means a stronger effect. inhibition, % at 10 µM; hits with a dose series show IC50 in µM. 220,000 compounds, 0.95% hits;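 active means confirmed in a dose series; inconclusive means inhibition above 80% but not taken into the dose series; inactive means below 80% or under 30% at every dose of the series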;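 further: bacteria incubated seven days before Alamar blue readout; 0% = bacteria only wells and 100% = bacteria with antibiotic wells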
RecA splice inh: Mtb RecA intein splicing inhibitors, primary screen, biochemical, fluorescence, HTS | cell-free RecA intein splicing | inhibition, %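 (about 9 µM by stock and volumes)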 | 290,000 compounds, 0.75% hits; in the data active means inhibition above about 30%; inconclusive means no clear call, values can overlap the other calls;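 further: 0% = vehicle wells and 100% = reference inhibitor control wells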
Target sequence (P9WHJ3 whole entry, looked up, canonical isoform): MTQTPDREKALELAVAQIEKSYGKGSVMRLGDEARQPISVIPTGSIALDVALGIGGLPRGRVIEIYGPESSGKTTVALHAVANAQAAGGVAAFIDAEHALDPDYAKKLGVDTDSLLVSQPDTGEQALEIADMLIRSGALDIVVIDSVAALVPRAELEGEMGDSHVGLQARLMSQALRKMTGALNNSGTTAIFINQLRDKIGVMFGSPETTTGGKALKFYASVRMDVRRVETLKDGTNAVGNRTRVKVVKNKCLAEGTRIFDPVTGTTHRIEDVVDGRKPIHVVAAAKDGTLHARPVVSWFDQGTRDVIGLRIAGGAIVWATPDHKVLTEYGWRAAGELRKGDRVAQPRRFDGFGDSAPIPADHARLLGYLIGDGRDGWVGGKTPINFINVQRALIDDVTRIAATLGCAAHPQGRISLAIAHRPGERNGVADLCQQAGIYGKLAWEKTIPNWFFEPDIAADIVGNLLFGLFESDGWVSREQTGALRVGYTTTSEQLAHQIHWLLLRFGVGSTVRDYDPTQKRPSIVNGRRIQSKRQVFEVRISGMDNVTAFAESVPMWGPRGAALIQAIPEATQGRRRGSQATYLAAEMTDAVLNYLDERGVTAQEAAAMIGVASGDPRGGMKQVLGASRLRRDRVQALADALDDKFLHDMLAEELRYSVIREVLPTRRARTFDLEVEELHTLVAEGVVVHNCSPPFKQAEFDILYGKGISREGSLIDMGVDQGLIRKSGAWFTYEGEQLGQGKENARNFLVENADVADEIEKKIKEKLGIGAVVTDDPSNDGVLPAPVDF
Mtb bLac sens: beta-lactam sensitization of Mtb H37Rv, H37Rv. M. tuberculosis H37Rv growth with meropenem, percent inhibition; hits of this screen are not shown here. 330,000 compounds, 0.27% hits. AID 434955, 2010. inhibition, % at 25 µM;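 active means about 74% or more and at least 40 points above the plate without the antibiotic, then above 30% in a dose series; inconclusive means first-round hits that could not be retested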;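 further: growth measured after seven days incubation then overnight dye step; 0% = bacteria only wells and 100% = bacteria with antibiotic; twin plates without the antibiotic show which effects depend on it; some results filed as inactive read as strong as hits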
Arbovirus inh: antivirals against arbovirus infection, primary screen, cell-based, full library, 10K replicate subset; arbovirus infection cell-based antiviral screen; inhibition, % at 10 µM; 200,000 compounds, 0.37% hits;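 active means inhibition from about 30%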;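 further: bluetongue infection of BSR cells; cell survival read as ATP light after 72 h; 0% = infected wells without compound and 100% = uninfected wells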
Arbovirus inh repeat: further read-out of Arbovirus inh, marked with its call; inhibition, %; measured here: 10K subset replicate screen; many hits read low in the repeat;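 first of two repeat runs on a subset; 0% = infected and 100% = uninfected wells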
* hit, by the source's call; ? = inconclusive; . = no result given. This is a subset (hit frequency here may not be typical).

SMILES	YopH PTP inh	Mtb growth	RecA splice inh	Mtb bLac sens	Arbovirus inh	others
COc1cc(C(=O)CSc2nnc(-c3ccc(O)cc3)n2CC2CCCO2)ccc1NC(C)=O (stereo not drawn)	-1	-10%	36*	-3	5
O=C(Nc1cccc(-c2cc3ccccc3oc2=O)c1)c1ccc(Br)o1	2	1%	-0.4	92	-14
CCn1nnc2c(=O)oc3ccccc3c21	.	13%	0.0	4	-3
CC1C=CC(C)C(C(=O)O)C1C(=O)O (stereo not drawn)	-28	-6%	-2.5	-1	3
Cc1ccc2nc(-c3ccc(NC(=O)Cc4cccs4)cc3)[nH]c2c1	6	3%	-0.4	7	-25
CN(C)N1C(N)=C(C#N)C(c2cccnc2)C2=C1CCCC2=O (stereo not drawn)	-25	4%	-2.6	-11	2
O=C(Nc1nccs1)c1ccc(-c2ccc([N+](=O)[O-])cc2)o1	.	0%	6.3	-5	-14
O=C(NCc1ccccc1)Nc1cccn(Cc2ccc(Cl)cc2)c1=O	.	0%	1.8	0	-2
O=C(Cc1ccccc1F)Nc1nc(-c2cccs2)cs1	-20	16%	12	46	-4
C/C(=N\NC(=S)Nc1c(C)cccc1C)c1ccc(O)cc1	.	0%	18	0	.

The closing 5 entries of the part before lead into the next.
SMILES	YopH PTP inh	Mtb growth	RecA splice inh	Mtb bLac sens	Arbovirus inh	others
CN(C)N1C(N)=C(C#N)C(c2cccnc2)C2=C1CCCC2=O (stereo not drawn)	-25	4%	-2.6	-11	2
O=C(Nc1nccs1)c1ccc(-c2ccc([N+](=O)[O-])cc2)o1	.	0%	6.3	-5	-14
O=C(NCc1ccccc1)Nc1cccn(Cc2ccc(Cl)cc2)c1=O	.	0%	1.8	0	-2
O=C(Cc1ccccc1F)Nc1nc(-c2cccs2)cs1	-20	16%	12	46	-4
C/C(=N\NC(=S)Nc1c(C)cccc1C)c1ccc(O)cc1	.	0%	18	0	.
O=C(CCN1C(=O)[C@H]2CC=CC[C@H]2C1=O)NCc1nc(-c2ccccc2)no1	.	.	-4.1	-6	.
CCOC(=O)c1sc(NC(=O)CN2CCCC2)c(C(=O)OCC)c1C	-17	.	-0.5	.	0
O=c1c(-c2ccco2)[n+]([O-])c2ccccc2n1OCc1c(F)cccc1F	.	2%	-2.3	7	.
O=C1CC2(CCCC2)Oc2ccccc21	.	-7%	-2.0	-9	.
O=C(NC1CCN(C(=S)Nc2ccc(F)cc2)CC1)c1ccco1	.	.	12	0	.
c1ccc(CN2CCN(c3ncnc4c3[nH]c3ccccc34)CC2)cc1	-8	22%	-3.0	93	-10
Cc1cc(C)cc(N(CCC#N)C(=O)COC(=O)c2ccccc2SCC(=O)N2CCCC2)c1	.	.	-4.3	4	.
Cc1c[n+]([O-])cc(C)c1Oc1ccccc1	.	.	-2.8	-4	.
Nc1nc(-c2ccc(Br)cc2)cc(C(F)(F)F)n1	-1	-3%	-0.2	-9	2
Cn1c(=O)[nH]c(=O)c2c1nc1n2CC(COc2ccc3ccccc3c2)O1 (stereo not drawn)	.	-1%	-1.4	-1	.

The final 4 compounds of the part above come first, to join the parts:
SMILES	YopH PTP inh	Mtb growth	RecA splice inh	Mtb bLac sens	Arbovirus inh	others
Cc1cc(C)cc(N(CCC#N)C(=O)COC(=O)c2ccccc2SCC(=O)N2CCCC2)c1	.	.	-4.3	4	.
Cc1c[n+]([O-])cc(C)c1Oc1ccccc1	.	.	-2.8	-4	.
Nc1nc(-c2ccc(Br)cc2)cc(C(F)(F)F)n1	-1	-3%	-0.2	-9	2
Cn1c(=O)[nH]c(=O)c2c1nc1n2CC(COc2ccc3ccccc3c2)O1 (stereo not drawn)	.	-1%	-1.4	-1	.
Fc1ccc(-c2csc3[n+]2CCS3)cc1	-9	-9%	0.3	1	2
CC(C)c1ccc(OC(=O)c2ccc3c(=O)n4c(nc3c2)CCC4)cc1	.	.	1.1	85	.
COc1ccc(-c2cc(C3CCN(c4ccc(C(C)=O)cc4[N+](=O)[O-])CC3)[nH]n2)cc1	-27	-9%	1.2	4	-34
Cc1ccc(S(=O)(=O)CCC(=O)OCc2ccc(S(=O)(=O)C(C)C)cc2)cc1	.	7%	2.2	3	2
CC(C)(C)NC(=O)COc1ccc(CNc2ccc3[nH]c(=O)[nH]c3c2)cc1	23	7%	-1.0	7	4
O=C(N/N=C/C(Cl)=C\c1ccccc1)c1cccs1	.	2%	2.4	0	.
COc1cccc(CC2(CO)CCCN(Cc3ccc4c(c3)OCCO4)C2)c1 (stereo not drawn)	.	4%	1.1	0	-2
Cc1ncoc1C(=O)NCc1ccccc1Cl	-46	0%	0.5	.	1
Cc1nn(C)c(Cl)c1CN1CCCC(C(=O)Nc2cccc(-n3cccn3)c2)C1 (stereo not drawn)	.	.	-0.4	7	.
CN(Cc1ccc(C(C)(C)C)cc1)C(=O)C1CCN(C(=O)Nc2ccccc2)CC1	.	.	5.5	-5	.
COc1ccccc1NC(=O)CC1S/C(=N/N=C(\C)C2CCCCC2)NC1=O (stereo not drawn)	.	.	2.4	9	.
Cc1ccc2occ(/C=C/C(=O)O)c(=O)c2c1	-29	-5%	-4.4	30	0
COc1ccc(S(=O)(=O)N2CCCCCC2)cc1N(C)S(=O)(=O)c1ccc(Cl)cc1	2	-12%	5.9	-2	10
O=C(CSCc1cccc(CSCC(=O)Nc2ccc3ccccc3c2)n1)Nc1ccc2ccccc2c1	-6	.	0.4	-7	-13
N=c1c2c(-c3ccccc3)c(-c3ccccc3)oc2ncn1CCN1CCOCC1	-42	5%	4.8	88	-28
COc1ccc(S(=O)(=O)N2CCC(=O)N2)cc1	1	-16%	.	3	5
CC(C)CN1CCN(Cc2c[nH]c3ccccc23)CC1CCO (stereo not drawn)	.	.	-0.7	-4	.
Cc1c(Cl)cccc1NC(=O)CSc1nc2c(c(=O)[nH]1)CCCC2	-27	-1%	0.5	?	2
COc1ccc(CN(Cc2ccccn2)C(=O)CN2C(=O)C(C)Oc3ccccc32)cc1 (stereo not drawn)	-36	3%	-4.7	-5	-6
Cc1ccc(S(=O)(=O)N2CCCC2c2cccnc2)cc1 (stereo not drawn)	.	1%	-2.9	-3	.
O=C(c1cc([N+](=O)[O-])ccc1N1CCCC1)N1CCCC1	.	-7%	0.5	-9	-2
O=C(C1=C(O)C(=O)N(Cc2ccco2)C1c1cccc([N+](=O)[O-])c1)c1ccco1 (stereo not drawn)	.	.	3.3	?	.
O=C(NCc1ccc(F)cc1Cl)C1CC(=O)N(C2CCCCCCC2)C1 (stereo not drawn)	.	.	0.3	-8	.
O=[N+]([O-])c1ccc(Cc2ccccn2)c([N+](=O)[O-])c1	.	.	3.7	6	.
C[C@H]1CN=C(Nc2ccccc2)N1CCC1CCCC1	.	.	0.7	-6	.
CC1Oc2ccccc2C=C1/C=N/NC(=O)[C@@H](C)NC(=O)OC(C)(C)C (stereo partly drawn)	.	-7%	-0.6	3	.
COc1ccc(-c2cc(C3CC3)nc(SCC(=O)c3cccs3)c2C#N)cc1	-1	-3%	-1.6	6	-9
Cc1ccc(S(=O)(=O)N2CCCC(C(=O)NNCC(=O)Nc3cc(F)ccc3F)C2)cc1 (stereo not drawn)	.	1%	1.5	-3	-4
O=C(NCCc1ccccc1)/C(=C/c1ccco1)c1ccccc1	-23	8%	14	-3	3
O=C(Nc1ccccc1)c1ccccc1NC(=O)c1ccccc1C(=O)O	.	.	0.4	-8	.
COC(=O)c1ccc(Cl)c(NC(=O)c2cccc([N+](=O)[O-])c2C)c1	.	7%	-0.2	17	-10
COc1ccc(CCN(Cc2cccs2)S(=O)(=O)c2ccc(S(=O)(=O)N3CCC(C)CC3)cc2)cc1OC	-42	1%	-3.2	-2	-7
COc1cc(OC)c2c(c1)C(=O)OC2	-10	1%	0.1	-2	-9
CC(C)(C)C1CCc2c(sc(NC(=O)c3ccco3)c2C(N)=O)C1 (stereo not drawn)	-22	-3%	.	-7	8
CCCOc1ccc(C(=O)Nc2ccc(NC(=O)c3cccs3)cc2)cc1	.	.	-2.7	5	.
O=C(NCCc1ccccc1)C(=O)NCC1OCCN1S(=O)(=O)c1ccc([N+](=O)[O-])cc1 (stereo not drawn)	.	5%	-1.0	7	-4
Fc1ccc(-n2c(-c3cccs3)nc3nc4ccccc4nc32)cc1	-36	1%	-16	8	-13
O=C(Cc1coc(-c2ccc(F)cc2)n1)Nc1ccccc1	-15	5%	.	-5	-2
CCOc1[nH]n(-c2ccccc2)c(=O)c1C=Nc1ccc(C)cc1	.	-2%	0.6	7	2
CCOc1ccc(CNC(=O)CCc2cn(C)c3ccccc23)cc1	.	.	3.3	6	.
c1ccc(-c2nnc(SCc3nc4ccccc4[nH]3)n2Cc2ccco2)nc1	-49	-4%	7.1	-4	2	Arbovirus inh repeat=1
CCOC(=O)c1sc(NC(=O)CCN2C(=O)c3cccc([N+](=O)[O-])c3C2=O)c(C(=O)OCC)c1C	-25	-8%	-3.1	0	-5
COc1ccc(C(=O)NCC(=O)N2CCC3(CC2)NCCc2[nH]cnc23)cc1	.	.	3.0	5	.
CCOC(=O)c1sc(NC(=O)CSc2ccccn2)c(C#N)c1C	-26	-8%	-0.6	6	-20
C/C=C/C=C\C(=O)Nc1cccc(C2=NOC3(C2)C[C@@H](C(N)=O)N(C(=O)/C(C)=C/C)C3)c1 (stereo partly drawn)	.	-5%	1.6	-11	.
COc1ccccc1N(CC(=O)NCCSCc1ccc(Cl)cc1)S(C)(=O)=O	.	.	-0.8	-1	.
COc1cc(C(C)=O)ccc1OCc1cc(C(=O)N2CCSCC2)no1	.	.	-0.6	?	.
COc1ccc(NC(=O)CCC(=O)c2ccc(-c3ccccc3)cc2)cc1	-25	-15%	0.3	85	-5
O=C(Cc1ccc(Cl)cc1)Nc1ccc(N2CCN(C(=O)c3ccco3)CC2)c(Cl)c1	-3	8%	-0.5	100	-34
COc1ccc(S(=O)(=O)NCc2ccc(C)cc2)cc1	-33	15%	-0.5	9	7

Next part.
SMILES	YopH PTP inh	Mtb growth	RecA splice inh	Mtb bLac sens	Arbovirus inh	others
COC(=O)c1ccc(NC(=O)C(=O)c2cccn2C)cc1	.	2%	.	3	4
Cc1cc(C(=O)COc2cccnc2[N+](=O)[O-])c(C)n1Cc1ccco1	.	-2%	-0.7	5	-3
O=C(COc1ccc(S(=O)(=O)NCc2ccccc2)cc1)NCC1CCCO1 (stereo not drawn)	9	15%	-0.5	-9	5
Cc1oc(-c2ccccc2)cc1C(=O)Nc1cccc2ccccc12	-7	11%	4.6	66	6
COC(CNC(=O)C1CCCCC1C(=O)O)OC (stereo not drawn)	-40	-15%	0.6	4	2
COC/C=C/C1=CC2=CC(=O)C(C)(OC(=O)c3cnc4ccccc4n3)C(=O)C2=CN1CCOC (stereo not drawn)	.	-3%	2.8	-1	.
CCOc1ccc2ccccc2c1/C=N/NC(=O)CNC(=O)c1ccccc1O	.	.	-0.8	0	.
O=C(Nc1ccc(N2CCN(C(=O)c3ccccc3)CC2)cc1)c1cccnc1	.	.	0.8	-2	.
CC12CN(C(=O)c3cccc([N+](=O)[O-])c3)C3(C#N)CC1CCC23C (stereo not drawn)	.	.	-0.6	-7	.
Cc1ccc(NCc2nnc3n2CCCCC3)cc1	-3	9%	2.6	4	-10
Clc1cccc(N2CCN(CCNc3nc4ccccc4n4cnnc34)CC2)c1	-35	8%	0.1	-5	4
Cc1ccccc1OCC(=O)NNC(=O)CN1C(=O)c2ccccc2C1=O	-45	-15%	2.9	1	-5
O=C(CSc1ncnc2sc3c(c12)CCC3)NCC1CCCO1 (stereo not drawn)	.	.	1.9	-2	.
COc1cccc(NC(=O)NCCN2CCCCC2)c1	.	.	1.4	-3	.
O=C(CCCN1C(=O)c2ccccc2C1=O)Nc1cccnc1	3	-9%	4.7	3	7
CCOC(=O)C1CCN(C(=O)CNS(=O)(=O)c2cccs2)CC1	-27	-20%	.	?	0
O=C(COC(=O)c1cnccn1)c1ccc2c(c1)CCCC2	-37	-5%	-0.3	-3	-2	Arbovirus inh repeat=7

Molecules above that have a COOH group, in the order listed:
SMILES	YopH PTP inh	Mtb growth	RecA splice inh	Mtb bLac sens	Arbovirus inh	others
CC1C=CC(C)C(C(=O)O)C1C(=O)O (stereo not drawn)	-28	-6%	-2.5	-1	3
Cc1ccc2occ(/C=C/C(=O)O)c(=O)c2c1	-29	-5%	-4.4	30	0
O=C(Nc1ccccc1)c1ccccc1NC(=O)c1ccccc1C(=O)O	.	.	0.4	-8	.
COC(CNC(=O)C1CCCCC1C(=O)O)OC (stereo not drawn)	-40	-15%	0.6	4	2

Compound activity from PubChem.
